Assay outcomes from PubChem BioAssay.
HIV Env fusion: blocks HIV Env-driven cell-cell fusion; HeLa-JRFL Env/CEM21 cell fusion, luciferase; 1.1% of 360,000 active; inhibition, % at 12.3 µM;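 active = mean replicate inhibition score of at least 50 and every replicate individually at or above 50; inconclusive = only one of the two criteria met; inactive = mean below 50 and not all replicates reaching 50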;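 note: 0% = plate neutral controls and 100% = maraviroc near 300 nM; one replicate is shown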
eIF4H inh: inhibitors of RNA binding by human eIF4H | eIF4H fluorescence polarization binding assay | inhibition, % at 35 µM | 0.94% of 290,000 active;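 active = 50% or more with normal probe brightness, or confirmed in later tests; inconclusive = above 50% with abnormal brightness, or retests that disagree; inactive = below 50% or failed in later tests; about a fifth of its hits are not listed in these tables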;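 note: calls also rest on retests at 20 µM and on dose response follow-up; 0% = protein and probe with vehicle and 100% = probe without protein; strong numbers were not always called active; many hits fall short of the cut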
Rce1 inhib: inhibitors of yeast Ras-converting enzyme. calls only. 0.27% of 290,000 active. Q03530. yeast membranes, quenched prenylated peptide cleavage fluorescence. AID 2563;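 active = fall in fluorescence gain of 50% or more versus controls, with final raw signal at or below 3038400; inconclusive = same 50% fall but final raw signal above 3038400; inactive = fall in fluorescence gain under 50%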;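 note: plate controls were neutral control wells for no effect and wells lacking membranes for full effect; tested at 10 µM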
CSC inhib: blocks cancer stem cells. inhibition, % at 7.5 µM. AID 2717. 1.1% of 300,000 active. cancer stem cell-like cells viability, luminescence;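 active = mean at 75% or more and at least half the replicates too; inconclusive = mean and replicates disagree; tested in HMLE shEcad cells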;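 note: 0% = median of negative and 100% = median of positive control wells; the first replicate is given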
UUG fidelity: yeast start codon fidelity modulation; S. cerevisiae UUG-firefly luciferase reporter, luminescence/redox ratio; activity score, % at 18.7 µM; 0.13% of 350,000 active; AID 602363;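 active = replicate mean at a twofold rise or more, about +100% in these data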;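 note: firefly luciferase made from a UUG start codon reports start codon fidelity; reporter light over untreated wells divided by growth signal over untreated wells; some hits fall short of that in this replicate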
MT1-MMP act inh: inhibitors of human MT1-MMP activation; 0.061% of 360,000 active; HT1080 RFP-PRO-GFP cells, GFP/RFP ratio fluorescence, overnight; percent of plate control window, DMSO zero; GFP/RFP ratio change, % at 20 µM; P50281;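 active = GFP/RFP ratio change of at least 30% with cell ATP level not reduced by more than half and red fluorescence within 50% of control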; note: strong numbers were not always called active
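Assay system: HT1080 RFP-PRO-GFP cells. Benchmarks: DMSO vehicle wells and RFP-L50D-GFP reporter cell wells. Times: overnight cell settling, then overnight compound exposure, 37 °C, 5% CO2. Compound: 20 µM single dose, 1% DMSO. Read-out basis: GFP/RFP fluorescence ratio.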
PABP FP inh: PABP-poly(A) binding inhibition; P11940; PABP-poly(A) RNA binding, fluorescence polarization; inhibition, % at 35 µM; 1% of 290,000 active; AID 2014;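 active = 50% or more with normal probe brightness, or confirmed in later tests; inconclusive = above 50% with abnormal brightness, or retests that disagree; inactive = below 50% or failed in later tests; about a fifth of its hits are not listed in these tables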;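 note: calls also rest on retests at 20 µM and on dose response follow-up; controls were probe without protein and protein plus probe with vehicle; some compounds called inactive have numbers as strong as hits; many hits fall short of the cut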
Target sequence (P11940 whole entry, looked up): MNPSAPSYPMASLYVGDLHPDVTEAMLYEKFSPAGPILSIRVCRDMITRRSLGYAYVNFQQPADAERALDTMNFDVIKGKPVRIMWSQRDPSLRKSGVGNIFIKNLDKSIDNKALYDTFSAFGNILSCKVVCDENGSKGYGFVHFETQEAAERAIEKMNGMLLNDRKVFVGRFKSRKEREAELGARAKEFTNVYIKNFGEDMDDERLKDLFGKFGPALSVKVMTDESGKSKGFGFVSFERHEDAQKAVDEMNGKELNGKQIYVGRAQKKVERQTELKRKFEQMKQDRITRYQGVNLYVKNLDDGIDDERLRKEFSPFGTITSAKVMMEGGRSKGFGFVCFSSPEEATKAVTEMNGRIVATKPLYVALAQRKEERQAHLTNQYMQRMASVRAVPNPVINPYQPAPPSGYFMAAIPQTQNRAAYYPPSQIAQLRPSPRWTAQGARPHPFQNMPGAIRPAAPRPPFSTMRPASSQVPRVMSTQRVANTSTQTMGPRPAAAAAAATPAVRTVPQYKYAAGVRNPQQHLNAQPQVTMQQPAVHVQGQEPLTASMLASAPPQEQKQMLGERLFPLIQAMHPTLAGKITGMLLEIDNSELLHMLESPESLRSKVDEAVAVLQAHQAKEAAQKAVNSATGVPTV
eIF4H inh retest: second read-out of eIF4H inh, no call of its own (marks repeat the call); inhibition, %; compound at 20 µM; confirmation average;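 mean of two retest wells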
PABP FP inh retest: also measured in PABP FP inh; calls as there; inhibition, %; compound at 20 µM; confirmation repeats;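 mean of two retest wells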
MT1-MMP act inh RFP: also measured in MT1-MMP act inh; calls as there; RFP signal change, %; measured here: RFP expression control read;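 0 = vehicle wells; hits needed this value within 50% of zero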
Numbers without * were called inactive; i = inactive; ? = inconclusive; / = no result given; & = joins results of further samples.

SMILES	HIV Env fusion	eIF4H inh	Rce1 inhib	CSC inhib	UUG fidelity	MT1-MMP act inh	MT1-MMP act inh RFP	PABP FP inh	others
O=C(NC1CCC(O)CC1)c1cc(Cl)c2c(c1)OCCO2 (stereo unspecified)	14.6	/	/	-11.8	0.6	-1.0	0.8	/
CC(C(=O)NCc1ccc(Cl)cc1)n1cccc1C(=O)c1ccccc1 (stereo unspecified)	3.5	7.0	i	23.1	18.1	-1.6	3.1	10.6
O=C(COC(=O)CNS(=O)(=O)c1ccccc1)Nc1ccc(Cl)cn1	/	-6.3	i	3.9	-12.3	2.2	5.9	0.7
Cc1cc(C)cc(NC(=S)N2CCN(c3ncc(C(F)(F)F)cc3Cl)CC2)c1	29.9	-6.4	i	3.6	/	7.7	3.6	8.3
CCOC(=O)C1CCCCN1Cc1ccc(F)cc1 (stereo unspecified)	/	21.4	i	-20.7	7.3	2.7	-0.1	11.2
Cc1ccc(NC(=O)C2CC(=O)N(Cc3ccccc3)C2)nc1 (stereo unspecified)	-56.4	/	i	/	-19.0	-1.9	2.8	/
CCCCn1nnnc1NCc1cccs1	/	2.0	i	-4.4	/	1.0	-3.8	-7.7
O=C1CC(c2ccc(S(=O)(=O)NCc3ccccc3)cc2)CN1 (stereo unspecified)	-7.7	8.9	i	-1.1	-20.8	2.1	5.2	-1.6
Cc1ccc(/C=N/Nc2nc(C(C)(C)C)cs2)o1	12.9	-1.7	i	-9.8	0.5	-14.7	-13.0	33.5
O=C(Nc1ccc(S(=O)(=O)Nc2nccs2)cc1)c1cccc(S(=O)(=O)N2CCOCC2)c1	10.3	-0.5	i	-16.4	-13.5	1.4	3.7	12.7
CCOC(=O)Cn1c(CN2CCOCC2)nc2c1c(=O)n(C)c(=O)n2C	-9.0	14.9	i	-5.3	-7.8	-3.3	1.5	5.9
Cc1onc(-c2c(F)cccc2Cl)c1-c1nnc(-c2cccc3ccccc23)o1	-9.6	-5.4	i	9.0	-10.5	2.9	5.6	-7.3
CC12CN(C(=O)c3ccc(Cl)cc3)C3(C#N)CC1CCC23C (stereo unspecified)	-7.8	3.7	i	-5.4	-14.1	4.9	3.8	-10.5
S=C(NCCc1ccc(Cl)cc1)NC1CCCC1	-14.2	-1.9	/	3.4	/	5.7	1.1	-4.0
CCOC(=O)C1CCN(C(=O)CSc2ccc(Cl)cc2)CC1	/	15.8	i	-0.5	-6.6	0.2	0.7	-6.5
CC(=O)N1CCc2cc3nc(C)cc(C)c3cc21	/	-3.0	i	-6.8	/	4.7	5.4	2.3
COc1ccc(CNC(=O)COC(=O)CN2C(=O)COc3ccccc32)cc1	-3.1	/	i	-7.3	3.6	-0.6	0.4	/
CCOc1cc2c3c(c1)C1(C(=O)N3C(C)(C)CC2C)C(C#N)=C(N)N2C(=C1C#N)Nc1ccccc12 (stereo unspecified)	-22.4	13.8	i	8.5	/	-8.0	0.5	-1.5
CCN1C(=O)[C@H]2[C@@H](c3ccc(-c4ccc(Cl)c(Cl)c4)c(OC)c3)N[C@@](C)(C(=O)OC)[C@H]2C1=O	29.5	/	i	22.0	2.2	2.5	-4.7	/
O=C(/C(=C/O)N=Nc1ccccc1)c1ccncc1	/	-1.1	i	14.7	/	0.5	0.2	1.0
O=C(c1ccc([N+](=O)[O-])cc1)N1CCSC1c1ccccc1 (stereo unspecified)	-11.5	14.0	i	-12.1	/	-0.8	0.4	1.5
CCOC(=O)Cc1csc(NC(=O)/C=C/c2ccc(OC)cc2)n1	-42.8	17.0	i	-5.3	-13.0	-2.6	-12.5	10.8
CCCCNC(=O)CSc1nc2ccsc2c(=O)n1C1CCN(C(=O)OCC)CC1	/	-13.0	i	-1.8	27.7	4.4	-4.9	-9.3
CC(NC(=S)NCCc1ccccc1)C(c1cccs1)N1CCN(Cc2ccccc2)CC1 (stereo unspecified)	11.6	2.3	i	/	-4.8	-4.3	-11.3	13.3
COc1ccccc1C(=O)NCCC(=O)N1CCN(C(C)=O)CC1	/	/	i	-9.3	/	-0.5	5.3	/
O=C(Nc1ccc(C(=O)N2CCN(c3ccc(Cl)cc3)CC2)cc1)C1=CSCCO1	0.0	/	i	-20.9	-7.1	4.6	-0.2	/
O=C(O)c1nn(CC(=O)N(C2CCCCC2)C2CCCCC2)c(=O)c2ccccc12	15.2	-2.4	i	3.4	/	0.1	0.6	5.8
Cc1ccc(-c2nc3ccccc3c(=O)n2NC(=S)N(C)C)cc1	-13.0	-9.0	i	-3.6	/	2.0	6.5	-11.8
Cn1c(-c2ccsc2)c(-c2cccs2)c2cc(-c3ccc4cc[nH]c4c3)ccc21	-24.9	/	/	-19.1	-23.0	6.4	-4.3	/
CCOC(=O)N1CCN(C(=O)c2ccc3nc(N4CCCCC4)sc3c2)CC1	/	-0.1	i	0.1	-20.4	4.6	-1.6	-7.3
Oc1ccccc1-c1nc(/C=C/c2ccccc2)nn1-c1ccccc1	-0.2	12.6	i	24.9	/	-4.4	-2.4	8.8
C/C=C/C=C/C(=O)N1CC[C@]23c4ccccc4N[C@H]4N(C)c5cccc6c5[C@]42CCN([C@H]6C2OC2(C)C)[C@H]13 (stereo partly specified)	/	13.1	i	3.9	-7.4	-30.7	-29.3	8.5
O=C(CN(Cc1cccs1)C(=O)CNS(=O)(=O)c1ccc(F)cc1)NCc1ccco1	/	1.5	i	-14.4	-8.0	-2.7	3.1	-4.2
O=C(NC1CCS(=O)(=O)C1)c1cccc(S(=O)(=O)N2CCCCCC2)c1 (stereo unspecified)	4.2	4.2	i	-14.0	/	-1.9	1.3	-6.2
CN(CCOc1ccccc1)C(=O)CCc1c[nH]c2ccccc12	-8.3	-11.6	i	-1.2	-7.3	2.9	2.1	-7.2
O=C(CC(O)(C(F)(F)F)C(F)(F)F)Nc1ccc(Cl)c(Cl)c1	109.1*	-1.9	/	98.6*	-20.4	-14.6	-29.0	6.0
Cc1ccc(-c2ccnc3c(Cl)c(C)nn23)cc1	-7.5	-3.2	i	-1.7	-12.1	-4.8	0.0	-5.1
Cc1ccc(S(=O)(=O)NCCC(=O)N2CC(C)OC(C)C2)cc1 (stereo unspecified)	-8.8	/	i	6.8	-9.8	2.1	0.7	/
COc1ccc(C2(C(=O)NC(C)C)CCCC2)cc1OC	-11.8	-4.4	i	-10.7	-24.6	2.2	0.7	12.1
CN(CC(=O)Nc1cccc(F)c1)CC(=O)Nc1cccc2ccccc12	/	/	/	-14.5	3.4	3.8	-3.6	/

2 entries picked at random from the list so far, as already listed:
SMILES	HIV Env fusion	eIF4H inh	Rce1 inhib	CSC inhib	UUG fidelity	MT1-MMP act inh	MT1-MMP act inh RFP	PABP FP inh	others
O=C(Nc1ccc(C(=O)N2CCN(c3ccc(Cl)cc3)CC2)cc1)C1=CSCCO1	0.0	/	i	-20.9	-7.1	4.6	-0.2	/
O=C(CC(O)(C(F)(F)F)C(F)(F)F)Nc1ccc(Cl)c(Cl)c1	109.1*	-1.9	/	98.6*	-20.4	-14.6	-29.0	6.0

(continued)
SMILES	HIV Env fusion	eIF4H inh	Rce1 inhib	CSC inhib	UUG fidelity	MT1-MMP act inh	MT1-MMP act inh RFP	PABP FP inh	others
NC(=S)N/N=C/c1ccccc1OCCSc1ccc(Cl)cc1	-16.0	-6.8	i	-3.9	/	-25.5	-27.6	7.9
O=C(NN1CCOCC1)c1ccc(F)cc1	-9.1	1.1	i	-12.5	-2.2	2.4	6.9	10.3
O=C(N/N=C/c1cccs1)C1COc2ccccc2O1 (stereo unspecified)	-20.6	-1.8	i	25.0	-2.1	-1.8	1.6	4.6
COc1ccc(N2C(=O)C(F)(F)C2c2ccc(C)cc2)cc1OC (stereo unspecified)	-9.0	-2.1	i	3.5	/	-1.7	-2.7	62.0	eIF4H inh retest=-7.3;PABP FP inh retest=9.4
C=CCN1C(=O)c2ccc(C(=O)N(C)CC(=O)Nc3ccc(Br)cc3C)cc2C1=O	-2.5	/	i	7.1	-1.8	-0.3	0.4	/
Cc1ccc(NC(=O)c2ccc3c(c2)OCCO3)cc1C	-163.6	-2.7	i	/	-79.8	3.6	0.2	-4.2
COc1ccc(C(C)=O)cc1CC(=O)Nc1cccc(S(=O)(=O)N2CCOCC2)c1	-6.0	/	/	-9.4	-13.2	-1.5	-1.4	/
O=c1c2ccccc2c(C=NCCO)c(O)n1-c1ccccc1	-97.0	-1.1	i	-13.3	/	1.8	4.2	-5.9
CCOc1ccc(S(=O)(=O)Nc2cccc(C(=O)NCC3CCCO3)c2)cc1 (stereo unspecified)	0.7	/	/	-6.1	7.0	4.1	-15.8	/
COc1ccccc1CN1CC(C(=O)NCC2CCCO2)CC1=O (stereo unspecified)	/	-10.2	i	12.6	-13.9	-0.6	5.5	7.5
Cc1ccc(-n2nc3c(c2NC(=O)c2ccc4c(c2)OCO4)CS(=O)(=O)C3)cc1C	21.9	-4.4	i	-2.2	2.5	0.6	-1.0	-5.6
COc1ccccc1CNS(=O)(=O)c1cc2c3c(c1)CCN3C(=O)CC2	-0.3	/	i	-3.3	-21.4	4.5	0.9	/
Cc1ccc(OCCSc2ncnc3nc[nH]c23)cc1	/	1.9	i	16.2	/	-6.6	-13.2	4.2
CCOC(=O)CCCCCC(=O)Nc1ccc2c(c1)CC(=O)N([C@H](C)CO)C[C@H](C)[C@H](CN(C)S(=O)(=O)c1ccc(OC)cc1)O2	95.7*	/	/	-9.7	5.6	1.5	3.7	/
COc1cc(C(=O)N(Cc2ccc(F)cc2)C2CCS(=O)(=O)C2)cc(OC)c1OC (stereo unspecified)	-13.4	-0.4	i	-12.1	-4.3	0.8	1.2	6.0
O=C(NCc1cccc(CNC(=O)Nc2cccc(O)c2)c1)Nc1cccc(O)c1	-38.0	-12.5	i	0.4	-9.1	-3.2	-2.6	3.3
O=C(COC(=O)C1=COCCO1)Nc1cccc(S(=O)(=O)N2CCOCC2)c1	/	-9.1	i	-11.5	-11.5	1.9	5.8	8.2
COc1ccc(NC2CCCN(C(=O)c3cccnc3)C2)cc1 (stereo unspecified)	0.4	2.2	i	13.9	-19.7	0.5	4.8	3.1
O=C(O)COCc1nc2ccccc2[nH]1	-28.6	5.7	i	-11.9	-19.0	0.4	4.9	11.8
O=C(N/N=C\c1ccc(Cl)cc1)c1sccc1-n1cccc1	/	-0.4	i	-8.9	-5.2	1.8	0.5	2.3
CCCC(O)(CCN(C)C)c1ccc(OC)cc1 (stereo unspecified)	/	-5.8	i	1.3	-17.4	-0.6	1.9	11.1
Cc1ccccc1CSCCNC(=O)CN(c1ccc2c(c1)OCO2)S(C)(=O)=O	?	-2.4	i	9.2	3.7	3.6	-5.8	-10.3
COc1cccc2cc3c(=O)n(-c4ccccc4)nc-3oc12	-3.9	6.1	i	-7.3	-4.3	2.9	6.7	7.8
C[C@H]1CN([C@@H](C)CO)C(=O)c2cc(Br)cnc2O[C@@H]1CN(C)C(=O)C1CCC1	-105.8	/	/	/	-9.6&7.4	1.6	0.2	/
CCOC(=O)C1CCCN(S(=O)(=O)c2cc(C(=O)OC)n(C)c2)C1 (stereo unspecified)	15.2	-18.7	i	1.5	-5.4	-2.2	-17.3	-11.3
COc1cc(NC(=O)c2ccnc(N)c2)cc(C(=O)Nc2cccc(C(F)(F)F)c2)c1	17.1	-13.2	i	97.1*	-2.5	7.4	1.7	2.7
O=C(CCN1C(=O)/C(=C/C=C/c2ccccc2)SC1=S)Nc1ccccn1	-5.9	-1.4	i	25.2	/	-3.4	6.8	4.0
COc1ccc(NC(=O)CN(C)C(=O)c2sc3ccccc3c2Cl)cc1	-0.5	/	i	18.7	2.0	5.0	2.7	/

This is a random part of the collection. Share with any hit: about 3%.
